High-throughput results as filed in PubChem BioAssay.
Yeast UUG start: modulators of yeast start codon fidelity, primary screen, whole organism, S. cerevisiae, single point, plate reader | activity score, % at 18.7 µM | S. cerevisiae UUG-firefly luciferase reporter, luminescence/redox ratio | 0.13% of 350,000 active;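 active means replicate mean at a twofold rise or more, about +100% in these data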;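 further: firefly luciferase made from a UUG start codon reports start codon fidelity; reporter light over untreated wells divided by growth signal over untreated wells; some hits fall short of that in this replicate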
Env fusion inh: inhibitors of HIV-1 Env-driven cell-cell fusion, primary screen, HeLa-JRFL effector, CEM21 target cells, luciferase; inhibition, % at 12.3 µM; 1.1% of 360,000 active;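 active means mean replicate inhibition score of at least 50 and every replicate individually at or above 50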;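 further: 0% = plate neutral controls and 100% = maraviroc near 300 nM; one replicate is shown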
An asterisk follows results filed as active; [ ] = another dose, or the depositor's remark. Only part of the results is shown; count on the stated rates, not on these rows.

SMILES	Yeast UUG start	Env fusion inh
C[C@@H]1CN([C@H](C)CO)S(=O)(=O)c2ccc(C3=CCCCC3)cc2O[C@H]1CN(C)C(=O)c1ccccc1	13	-16[16.7 µM]
Cc1noc(C)c1NC(=O)Nc1cccc2c1O[C@H](CN(C)C(=O)Nc1cccc3ccccc13)[C@@H](C)CN([C@H](C)CO)C2=O	18	2[16.7 µM]
C[C@H]1CN([C@@H](C)CO)C(=O)Cc2cc(NC(=O)CCC(F)(F)F)ccc2O[C@@H]1CN(C)C(=O)NC1CCCCC1	4	5[16.7 µM]
C[C@@H]1CN([C@@H](C)CO)C(=O)Cc2cc(NC(=O)CCC(F)(F)F)ccc2O[C@H]1CN(C)Cc1ccc(Oc2ccccc2)cc1	14	-4[16.7 µM]
CCNC(=O)C[C@H]1CC[C@H]2[C@@H](COc3ccc(NC(=O)c4cccc(OC)c4)cc3C(=O)N2C)O1	-12	5[16.7 µM]
O=C(N[C@H]1CC[C@H](CCn2cc(C3(O)CCCC3)nn2)O[C@H]1CO)c1ccccc1F	1	0[16.7 µM]
C[C@H]1CCCCO[C@H](CN(C)S(=O)(=O)c2ccc(F)cc2)[C@@H](C)CN([C@@H](C)CO)C(=O)c2cc(NS(=O)(=O)c3cn(C)cn3)ccc2O1	-13	-9[16.7 µM]
Cc1noc(C)c1S(=O)(=O)Nc1ccc2c(c1)CC(=O)N([C@H](C)CO)C[C@@H](C)[C@@H](CN(C)S(=O)(=O)c1ccc(F)cc1)O2	5	0[16.7 µM]
C[C@@H]1CN([C@H](C)CO)C(=O)Cc2cc(NC(=O)Nc3ccc4c(c3)OCO4)ccc2O[C@@H]1CN(C)CC1CCCCC1	10	20[16.7 µM]
C[C@@H]1CN([C@@H](C)CO)C(=O)c2cc(NC(=O)NC3CCCCC3)ccc2O[C@H]1CN(C)S(=O)(=O)c1cccs1	-1	3[16.7 µM]

Complete entries, quoted from the list:
CCNC(=O)C[C@H]1CC[C@H]2[C@@H](COc3ccc(NC(=O)c4cccc(OC)c4)cc3C(=O)N2C)O1 is listed with Yeast UUG start = -12; Env fusion inh = 5[16.7 µM]
C[C@@H]1CN([C@H](C)CO)S(=O)(=O)c2ccc(C3=CCCCC3)cc2O[C@H]1CN(C)C(=O)c1ccccc1 is listed with Yeast UUG start = 13; Env fusion inh = -16[16.7 µM]

Some of these compounds in order of SMILES length, rising.
SMILES	Yeast UUG start	Env fusion inh
O=C(N[C@H]1CC[C@H](CCn2cc(C3(O)CCCC3)nn2)O[C@H]1CO)c1ccccc1F	1	0[16.7 µM]
CCNC(=O)C[C@H]1CC[C@H]2[C@@H](COc3ccc(NC(=O)c4cccc(OC)c4)cc3C(=O)N2C)O1	-12	5[16.7 µM]
C[C@@H]1CN([C@@H](C)CO)C(=O)c2cc(NC(=O)NC3CCCCC3)ccc2O[C@H]1CN(C)S(=O)(=O)c1cccs1	-1	3[16.7 µM]
C[C@@H]1CN([C@H](C)CO)C(=O)Cc2cc(NC(=O)Nc3ccc4c(c3)OCO4)ccc2O[C@@H]1CN(C)CC1CCCCC1	10	20[16.7 µM]
C[C@@H]1CN([C@@H](C)CO)C(=O)Cc2cc(NC(=O)CCC(F)(F)F)ccc2O[C@H]1CN(C)Cc1ccc(Oc2ccccc2)cc1	14	-4[16.7 µM]
C[C@H]1CCCCO[C@H](CN(C)S(=O)(=O)c2ccc(F)cc2)[C@@H](C)CN([C@@H](C)CO)C(=O)c2cc(NS(=O)(=O)c3cn(C)cn3)ccc2O1	-13	-9[16.7 µM]

Other structures
SMILES	Yeast UUG start	Env fusion inh
CN(C)CC(=O)N[C@@H]1CC[C@@H](CCn2cc(C3CCCCC3)nn2)O[C@@H]1CO	-19	7[16.7 µM]
Cc1noc(C)c1NC(=O)N(C)C[C@H]1Oc2ccc(NS(=O)(=O)c3ccc(F)cc3)cc2CC(=O)N([C@H](C)CO)C[C@H]1C	2	4[16.7 µM]
C[C@@H]1CCCCO[C@@H](CN(C)C(=O)c2ccncc2)[C@H](C)CN([C@@H](C)CO)C(=O)c2cc(NC(=O)Cc3ccccc3)ccc2O1	4	5[16.7 µM]
COc1ccc(NC(=O)N[C@@H]2CC[C@@H](CCNC(=O)CCN3CCCCC3)O[C@@H]2CO)cc1	1	-1[16.7 µM]
O=C(N[C@@H]1CC[C@@H](CC(=O)N2CCCCC2)O[C@H]1CO)c1ccccn1	-9	1[16.7 µM]
C[C@@H]1CN([C@@H](C)CO)C(=O)c2cc(NC(=O)CCC(F)(F)F)ccc2O[C@@H]1CN(C)Cc1ccc2c(c1)OCO2	-12	8[16.7 µM]
C[C@H](CO)N1C[C@H](C)[C@H](CN(C)Cc2ccc(C(F)(F)F)cc2)Oc2ccc(NC(=O)Cc3cn(C)c4ccccc34)cc2CC1=O	2	14[16.7 µM]
C[C@H](CO)N1C[C@H](C)[C@@H](CN(C)C)Oc2cc(-c3ccc(C#N)cc3)ccc2S1(=O)=O	-3	-12[16.7 µM]
O=C(NCC[C@H]1CC[C@@H](NC(=O)C2CCCC2)[C@@H](CO)O1)c1ccc(F)cc1	-7	-3[16.7 µM]
COc1ccc(NC(=O)Nc2ccc3c(c2)C(=O)N([C@@H](C)CO)C[C@@H](C)[C@@H](CN(C)C(=O)Nc2ccccc2)O3)cc1	9	-18[16.7 µM]
O=C(CCN1CCCCC1)NCC[C@H]1CC[C@H](NC(=O)Cc2cccnc2)[C@@H](CO)O1	-5	-5[16.7 µM]
Cc1ccc(-c2ccc3c(c2)O[C@H](CN(C)C(=O)CN(C)C)[C@@H](C)CN([C@@H](C)CO)S3(=O)=O)cc1	18	-14[16.7 µM]
C[C@@H]1CCCCO[C@H](CN(C)C(=O)Nc2ccccc2)[C@H](C)CN([C@H](C)CO)C(=O)c2cc(NC(=O)CCC(F)(F)F)ccc2O1	8	34[16.7 µM]
C/C=C/c1ccc2c(c1)O[C@H](CN(C)S(=O)(=O)c1ccccc1OC)[C@H](C)CN([C@@H](C)CO)S2(=O)=O	1	-3[16.7 µM]
C[C@H](CO)N1C[C@H](C)[C@H](CN(C)C(=O)c2cccnc2)Oc2ncc(-c3ccc(F)cc3)cc2C1=O	1	13[16.7 µM]
O=C(C[C@@H]1CC[C@H]2[C@@H](COC[C@H](O)CN2C(=O)Nc2cc(Cl)cc(Cl)c2)O1)N1CCOCC1	0	4[16.7 µM]
C[C@@H]1CN([C@H](C)CO)C(=O)c2cc(-c3cncnc3)cnc2O[C@H]1CN(C)C(=O)Cc1ccccc1	1	-13[16.7 µM]
C[C@H](CO)N1C[C@H](C)[C@@H](CN(C)Cc2ccc(Oc3ccccc3)cc2)Oc2ccc(NC(=O)C3CCCCC3)cc2C1=O	3	38[16.7 µM]
C[C@@H]1CN([C@@H](C)CO)C(=O)Cc2cc(NC(=O)Cc3ccccc3)ccc2O[C@@H]1CN(C)Cc1ccc(C(=O)O)cc1	-10	10[16.7 µM]
C[C@H](CO)N1C[C@H](C)[C@@H](CN(C)C(=O)Nc2ccc(F)cc2)OCCCC[C@H](C)Oc2ccc(NC(=O)C3CCCCC3)cc2C1=O	-7	-29[16.7 µM]
COc1ccc(S(=O)(=O)N(C)C[C@@H]2Oc3ccc(NS(=O)(=O)c4ccccc4)cc3CC(=O)N([C@@H](C)CO)C[C@@H]2C)cc1	-2	-11[16.7 µM]
CC(C)NC(=O)Nc1ccc2c(c1)CC(=O)N([C@@H](C)CO)C[C@@H](C)[C@H](CN(C)C(=O)Nc1ccc(F)cc1)O2	-5	-19[16.7 µM]
C[C@@H]1CN([C@@H](C)CO)S(=O)(=O)c2ccc(C#C[C@@H](C)O)cc2O[C@H]1CN(C)Cc1ccccn1	-5	11[16.7 µM]
CN(C)CC(=O)Nc1ccc2c(c1)[C@H]1C[C@@H](CC(=O)NCc3ccccc3F)O[C@@H](CO)[C@H]1O2	-12	0[16.7 µM]
C[C@@H]1CN([C@H](C)CO)C(=O)c2cc(-c3ccccc3)cnc2O[C@@H]1CN(C)C(=O)C1CCCCC1	-5	-9[16.7 µM]
CNC(=O)C[C@@H]1CC[C@@H]2[C@H](COc3ccc(NC(=O)c4cc(C)on4)cc3C(=O)N2C)O1	8	18[16.7 µM]
C[C@H]1CN([C@@H](C)CO)S(=O)(=O)c2ccc(C#Cc3cccnc3)cc2O[C@@H]1CN(C)C(=O)CN(C)C	10	2[16.7 µM]
CN1C(=O)c2cc(NC(=O)c3cccc(F)c3)ccc2OC[C@@H]2O[C@H](CC(=O)NCc3ccccc3)CC[C@@H]21	15	37[16.7 µM]
CCCC#Cc1ccc2c(c1)O[C@@H](CN(C)C(=O)c1ccccc1F)[C@@H](C)CN([C@H](C)CO)S2(=O)=O	-27	1[16.7 µM]
Cc1noc(C)c1NC(=O)Nc1ccc2c(c1)CC(=O)N([C@@H](C)CO)C[C@H](C)[C@@H](CN(C)C(=O)Nc1c(C)noc1C)O2	-1	-1[16.7 µM]
C[C@@H]1CN([C@H](C)CO)S(=O)(=O)c2ccc(-c3ccc(C(=O)N(C)C)cc3)cc2O[C@@H]1CN(C)C(=O)C1CCOCC1	13	-7[16.7 µM]
C/C=C/c1ccc2c(c1)O[C@H](CN(C)Cc1cccc(F)c1)[C@H](C)CN([C@H](C)CO)S2(=O)=O	-9	15[16.7 µM]
C[C@@H]1CCCCO[C@@H](CN(C)CC2CCCCC2)[C@@H](C)CN([C@@H](C)CO)C(=O)c2cc(NC(=O)CCC(F)(F)F)ccc2O1	39	-2[16.7 µM]
C[C@@H]1CN([C@H](C)CO)C(=O)c2cc(C#CC(C)(C)O)cnc2O[C@H]1CN(C)C(=O)C1CCC1	1	-12[16.7 µM]
O=C(CCN1CCCCC1)N[C@@H]1CC[C@@H](CCn2cc(-c3ccccc3)nn2)O[C@H]1CO	10	-4[16.7 µM]
O=C(C[C@H]1CC[C@@H](NC(=O)CN2CCOCC2)[C@H](CO)O1)NCCc1ccncc1	1	6[16.7 µM]
C[C@H](CO)N1C[C@H](C)[C@H](CN(C)S(=O)(=O)c2ccc(F)cc2)Oc2ccc(NC(=O)c3ccncc3)cc2C1=O	13	9[16.7 µM]
COc1cccc(NC(=O)Nc2ccc3c(c2)C(=O)N(C)[C@@H]2CC[C@@H](CC(=O)O)O[C@H]2CO3)c1	3	19[16.7 µM]
O=C(N[C@@H]1CC[C@@H](CCNS(=O)(=O)c2ccccc2Cl)O[C@H]1CO)c1ccccc1	-5	6[16.7 µM]
C[C@@H]1CN([C@H](C)CO)S(=O)(=O)c2ccc(C#C[C@@H](C)O)cc2O[C@@H]1CN(C)Cc1cncnc1	-15	-54[16.7 µM]
COCc1cn(CC[C@H]2CC[C@@H](NC(=O)Nc3c(C)noc3C)[C@H](CO)O2)nn1	-4	18[16.7 µM]
CN1C(=O)c2cc(NC(=O)c3ccc(F)c(F)c3)ccc2OC[C@H]2O[C@H](CC(=O)O)CC[C@@H]21	-8	9[16.7 µM]
O=C(NCC[C@@H]1CC[C@@H](NC(=O)C2CCCCC2)[C@@H](CO)O1)c1cc(Cl)cc(Cl)c1	0	10[16.7 µM]
Cc1noc(C)c1NC(=O)N(C)C[C@@H]1OCCCC[C@@H](C)Oc2ccc(NS(C)(=O)=O)cc2C(=O)N([C@@H](C)CO)C[C@H]1C	-4	-34[16.7 µM]
C[C@@H]1CCCCO[C@@H](CN(C)Cc2ccc(Cl)c(Cl)c2)[C@@H](C)CN([C@H](C)CO)C(=O)c2cc(NS(=O)(=O)c3cn(C)cn3)ccc2O1	-2	-6[16.7 µM]
C[C@H](CO)N1C[C@H](C)[C@H](CN(C)C(=O)Nc2ccc3c(c2)OCO3)Oc2ccc(NS(=O)(=O)c3cccs3)cc2CC1=O	1	8[16.7 µM]
Cc1noc(C)c1S(=O)(=O)N(C)C[C@H]1OCCCC[C@H](C)Oc2ccc(NC(=O)c3ccccc3)cc2C(=O)N([C@@H](C)CO)C[C@H]1C	1	-37[16.7 µM]
CC(C)C#Cc1cnc2c(c1)C(=O)N([C@H](C)CO)C[C@@H](C)[C@H](CN(C)C(=O)c1ccccc1)O2	-2	-5[16.7 µM]
C[C@H](CO)N1C[C@H](C)[C@@H](CN(C)C(=O)C2CC2)Oc2ncc(-c3ccc(C(=O)N(C)C)cc3)cc2C1=O	26	-8[16.7 µM]
COc1ccccc1-c1ccc2c(c1)O[C@@H](CN(C)Cc1ccc3c(c1)OCO3)[C@H](C)CN([C@@H](C)CO)S2(=O)=O	1	22[16.7 µM]
Remaining list, next part:
SMILES	Yeast UUG start	Env fusion inh
C[C@H]1CN([C@@H](C)CO)C(=O)c2cc(C#CCN(C)C)cnc2O[C@@H]1CN(C)Cc1ccccc1	-8	-5[16.7 µM]
CN(C)C(=O)c1ccc(-c2ccc([C@@H]3[C@@H](C#N)N(C(=O)C4CCOCC4)[C@H]3CO)cc2)cc1	7	-12[16.7 µM]
C[C@@H]1CCCCO[C@@H](CN(C)C(=O)C2CCCCC2)[C@@H](C)CN([C@H](C)CO)C(=O)c2cc(NC(=O)CCC(F)(F)F)ccc2O1	8	2[16.7 µM]
C[C@@H]1CN([C@H](C)CO)C(=O)c2cc(NC(=O)NC3CCCCC3)ccc2O[C@@H](C)CCCCO[C@@H]1CN(C)C(=O)c1ccncc1	33	1[16.7 µM]
CC(C)NC(=O)Nc1ccc2c(c1)C(=O)N([C@@H](C)CO)C[C@@H](C)[C@H](CN(C)C(=O)Nc1ccc3c(c1)OCO3)OCCCC[C@@H](C)O2	-3	15[16.7 µM]
COc1ccc(S(=O)(=O)Nc2ccc3c(c2)C(=O)N([C@@H](C)CO)C[C@H](C)[C@@H](CN(C)Cc2ccc(Cl)c(Cl)c2)OCCCC[C@H](C)O3)cc1	56	59*[16.7 µM]
COc1cccc(NC(=O)N2C[C@H](O)COC[C@@H]3O[C@H](CC(=O)N(C)C)CC[C@H]32)c1	2	-2[16.7 µM]
COCCNC(=O)C[C@@H]1CC[C@H]2[C@H](COc3ccc(NC(=O)COC)cc3C(=O)N2C)O1	6	-2[16.7 µM]
O=C(Nc1ccccc1F)N[C@@H]1CC[C@H](CCNC(=O)C2CC2)O[C@@H]1CO	-5	-3[16.7 µM]
